Tg IFNy HTS: blocks Toxoplasma gondii growth in the presence of IFN-gamma; Toxoplasma gondii growth in IFN-gamma-treated host cells; active compounds read low; reference of the scale not given here; activity change, negative = inhibition, %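 (about 20 µM by stock and volumes)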; 69,000 tested, 3.8% active;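 active = below -70%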;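 also: host cells are HeLa cells infected with Toxoplasma gondii; parasite growth read as luciferase light; one replicate is shown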
The depositor's hits bear a star; i = inactive; & = joins results of further samples.

SMILES | Tg IFNy HTS
COc1ccc(C2C3=C(CC(C)(C)CC3=O)N(C)C3=C2C(=O)CC(C)(C)C3)cc1 | -9
CCCS(=O)(=O)c1ccc2nc(NC(=O)OC)[nH]c2c1 | -47
Cc1cc(C)n(Cc2nc(-c3ccc(NC(=O)c4ccc(F)cc4Cl)cc3)oc2C)n1 | 66
O=C(Nc1cccc(Cl)c1)c1ccccn1 | 221
Cc1ccc(CN2CCC3(CCCN(Cc4nccs4)C3)C2)o1 (stereo not drawn) | 102
CCCn1cnnc1CN(C)C(=O)c1nc2c(s1)CCCC2 | -28
Cc1ccc(CNC(=O)COC(=O)c2cccs2)cc1 | -12
Cc1ccc(C2(CN3CCN(S(=O)(=O)N(C)C)CC3)CCCC2)cc1 | -24
O=C(NCCc1csc(-c2ccccc2)n1)c1ccc(Cl)cc1 | 399
O=C(O)CSCC(=O)Nc1ccc(N2CCOCC2)nc1N1CCOCC1 | 70
CCS(=O)(=O)N1CCC2O[C@@H](COc3cccnc3)CCC21 (stereo partly drawn) | -3
CCCC(=O)Nc1ccc2c(c1)OC[C@H](C)N(CC1CCOCC1)C[C@@H](C)[C@@H](OC)CN(C)C2=O | 1
O=S(=O)(NC1Cc2ccccc2C1)c1ccc(-c2csnn2)cc1 | -29
COc1ccc(S(=O)(=O)N2CCc3nc(-c4cccc(OC)c4)sc3C2)cc1 | -9
Cc1ccccc1-c1noc(CNCCS(=O)(=O)N(C)C)n1 | 6
CCOC(=O)c1sc(Br)nc1C | -7
Cc1nc(-c2ccc(F)cc2)sc1CCNC(=O)C(C)C | 397
CN1CC[C@@]2(CN(C(=O)c3cscn3)C[C@H]2c2ccccc2)C1=O | 0
Cc1cc(C)cc(CCC(=O)N2CCCC2c2cc(C)no2)c1 (stereo not drawn) | 12
COCC(=O)NCC1CCCN(Cc2ccccc2F)C1 (stereo not drawn) | -1
Cc1ccc(-c2nc(C)c(CCNC(=O)C(=O)Nc3ccccc3[N+](=O)[O-])s2)cc1 | 358
O=C1CC2(CCN(C(=O)NCc3ccc(F)cc3)CC2)Oc2ccccc21 | 198
COC(=O)c1ccc(Cl)cc1NC(=O)c1c(-c2c(F)cccc2Cl)noc1C | -19
COc1cccc(CC2(CO)CCN(c3ncccn3)CC2)c1 | -17
CCC1CN(Cc2cccnc2N)CCN1C(C)C (stereo not drawn) | 1
CCN1CCC2(CC1)OC(=O)C(C)=C2C(=O)NCc1ccc(OC)c(OC)c1 | 116
Cc1ccc(C(=O)Nc2ccc3c(c2)oc2ccccc23)cc1 | 71
CCCN(C)C[C@H]1Oc2cc(/C=C/c3ccccc3)ccc2S(=O)(=O)N([C@@H](C)CO)C[C@H]1C | -63
Cc1cc(C(=O)N2CCN(c3ncccn3)CC2)nn1C | -39
O=c1[nH]nc(CCc2nc3ccccc3[nH]2)n1Cc1ccccc1 | 0
CC(NC(=O)Cn1ncc2c(N3CCCCCC3)ncnc21)c1ccccc1 (stereo not drawn) | 82
O=C(NC[C@@H]1[C@@H](c2ccccc2)[C@@H](CO)N1C(=O)C1CCC1)NC1CCCC1 | -18
CCc1ncnc2c1CCN(C(=O)Cc1ccccn1)CC2 | -39
CCOC(=O)c1c(CNC)n(C)c2cc(Br)c(O)cc12 | -6
COc1cccc(-n2c(=O)c(C(=O)Nc3cccc(C)c3C)c(O)c3cccnc32)c1 | 142
CN(CC(=O)NCc1cccnc1)S(=O)(=O)c1ccc2[nH]c3c(c2c1)CCCC3 | 31
N#C[C@@H]1[C@H](c2ccccc2)[C@@H](CO)N1C(=O)CCN1CCCCC1 | 5
Cc1nn(Cc2nc(-c3ccc(NC(=O)c4ccc(N(C)C)cc4)cc3)oc2C)c(C)c1C | 37
OC1CCN(CCn2ccnc2-c2cccc3c2oc2ccccc23)CC1 | 9
C[C@H](CO)N1C[C@H](C)[C@@H](CN(C)C(=O)[C@@H]2CCCN2C)OCc2ccccc2-c2ccccc2C1=O | -6
CCOC(=O)CSCC(=O)c1ccc(OCc2ccc(Cl)c(Cl)c2)cc1 | 88
CCN(C)S(=O)(=O)N1CCC(c2n[nH]c(=O)n2Cc2ccccc2)CC1 | -1
COCCN1C(=O)CCc2cc(NC(=O)c3n[nH]c4ccccc34)ccc21 | 62
Cc1nc(CC2CCN(Cc3cc4n(n3)CCNC4)CC2)no1 | -49
O=C(NCC1CC1)C1CN(C(=O)c2cccs2)CC12CCOCC2 (stereo not drawn) | -2
CN1C(=O)C2(NCCc3c2[nH]c2ccc(Cl)cc32)c2cc(Br)ccc21 (stereo not drawn) | -9
Cc1cccc(C(=O)N2CC[C@@H](c3ccc4ccccc4c3)[C@H](O)C2)n1 | 8
CN(Cc1ncc[nH]1)C(=O)c1cnc(Nc2ccccc2)nc1 | 53
CC#C[C@@H](CC(=O)O)c1ccc(OCc2cccc(-c3ccc(C(F)(F)F)cc3)c2)cc1 | 11
CCC(NC(=O)c1cc2ncccn2n1)c1nc(C)c(C)s1 (stereo not drawn) | -7
CCCCc1cc2ccccc2c(OCCN(C)C)n1 | -10
CC1(C(=O)N2CCOCC2)CN(C(=O)c2ccc3nsnc3c2)CCO1 (stereo not drawn) | -12
O=C(NCC12CCCN1CCC2)c1ccc(C2CCNC2)cc1 (stereo not drawn) | 13
O=C(c1ccccc1-n1cncn1)N1C[C@H]2CC=CC[C@H]2C1 | -7
FC(F)(F)c1cccc(NC(=S)Nc2cccc(C(F)(F)F)c2)c1 | 19
c1ccc2oc(NCC3CNCCOC3)nc2c1 (stereo not drawn) | 28
NC(Cc1ccc2nonc2c1)C(=O)O (stereo not drawn) | -2
CC(C)C(=O)N1CCC2(COCc3cnc(NCC4CC4)nc32)C1 (stereo not drawn) | -5
C=C[C@@]1(C)CC(=O)[C@@]2(O)[C@](C)(O1)[C@@H](O)[C@@H](O)C1C(C)(C)CC[C@H](O)[C@@]12C (stereo partly drawn) | 21
CO[C@H]1CN(C)C(=O)c2ccc(NC(=O)c3cc(C)on3)cc2OC[C@H](C)NC[C@@H]1C | 8

Some of the entries above, set out differently.
| smiles | Tg IFNy HTS |
| --- | --- |
| O=C(NCC12CCCN1CCC2)c1ccc(C2CCNC2)cc1 (stereo not drawn) | 13 |
| CC1(C(=O)N2CCOCC2)CN(C(=O)c2ccc3nsnc3c2)CCO1 (stereo not drawn) | -12 |

(next part)
SMILES | Tg IFNy HTS
COc1ccc(-c2nc(Nc3ccc(Br)cc3F)c3ccccc3n2)cc1 | 7
Oc1ccccc1CCc1nncn1-c1cccc(F)c1 | 3
CCOC1CC2(CCN(C(=O)c3ccnnc3)CC2)C1 | -2
COc1ncccc1-c1nc2c(C)cccc2cc1CO | 1
C=CCN1CCOC2(CCN(C(=O)c3ccc[nH]3)CC2)c2ccccc21 | -28
Cn1cncc1CN1CCC2(CC(=O)N(c3ccccc3)C2)C1 (stereo not drawn) | -6
Cc1nc(-c2ccc(F)cc2)sc1CCNC(=O)C(=O)Nc1ccccc1Cl | 7
C/C=C/c1ccc([C@H]2[C@@H](CN(C)C(=O)CC3CC3)N(C(=O)C3CC3)[C@H]2CO)cc1 | 0
CCCc1nc(C)c(CNC(=O)Cc2ccccn2)s1 | 35
COc1ccc(CCN2CCC(CNS(=O)(=O)c3ccc4[nH]c(=O)ccc4c3)CC2)cc1 | -3
COc1cc(CNc2ccc3[nH]c(=O)[nH]c3c2)ccc1OCc1ccccc1 | 163
COCc1nnc(C(=O)N(C)Cc2cccnc2)o1 | 3
Cc1ccc2nsnc2c1NS(=O)(=O)NCc1ccccc1 | 14
COc1ccc(CN2CCN(C3CCCC3)C(=O)C2)cc1Cc1c(C)n[nH]c1C | -8
Cc1ccc2c(c1)c1c3n2CCN=C3CCC1 | -21
COc1ccc(-c2nc(Cn3nnc(-c4nc(-c5ccc(C)cc5)no4)c3C)c(C)o2)cc1 | -1
CN1Cc2c(C(=O)NCc3cccnc3)ncn2-c2ccccc2S1(=O)=O | 10
COc1ccc2c3c1O[C@H]1C[C@@H](O)C=C[C@@]31CCN(C)C2 | 12&7
CC(C)[C@H]1COCc2cn(nn2)CCCCC(=O)N1 | -16
CC(C)CN(C)C(=O)c1ncn2c1CN(CC1CC1)S(=O)(=O)c1ccccc1-2 | -8
Cc1nnnn1-c1cccc(C(=O)N2CCC(O)(CN(C)C)C2)c1 (stereo not drawn) | -45
O=C(Nc1nccs1)c1cccc(C2CCCN(C(=O)C3CCCCC3)C2)n1 (stereo not drawn) | -16
Cc1ccc(-c2nc(CCNC(=O)c3ccc4c(c3)OCO4)cs2)cc1 | 317
Cc1ccc(OCC(=O)N2CCCn3cncc3C2)cc1C | 9
Cc1cc(C(=O)N2CCN3CCNC(=O)C3C2)ccc1N1CCOCC1 (stereo not drawn) | 0
COc1ccc(-c2nc(CN(c3ccccc3)S(=O)(=O)c3ccccc3)c(C)o2)cc1 | -41
COCC(=O)N1C[C@H]2CCC[C@]2(COc2cccnc2)C1 | i
O=C1NCC(=O)N2CCN(C(=O)CCN3CCCCCC3=O)CC12 (stereo not drawn) | -4
Cc1ccc(S(=O)(=O)c2nc(/C=C3/N(C)c4ccccc4C3(C)C)sc2Cl)cc1 | 7
CCCNC(=O)N1C[C@@H]2N[C@H](C1)C2c1ccc(-c2ccccc2C)cc1 (stereo partly drawn) | -56&-23
COc1cccc(CN2CC3(CN(C)C3)c3c(n(C)c4cc(OC)ccc34)[C@H]2CO)c1 | 39
CCN1CCn2cc(CNC(=O)c3cnn(C)c3)nc2C1 | 260
O=C(CO)NCC1CCN(Cc2ccccc2F)C1 (stereo not drawn) | -7
CCOc1ccccc1-c1noc(-c2c(O)c3cc(Cl)ccc3[nH]c2=O)n1 | 2
O=C1CN(S(=O)(=O)c2cccc(F)c2)C[C@H]2[C@@H](c3ccc(C4=CCCC4)cc3)[C@H](CO)N12 | -12
CC(C)(Oc1ccc(C(=O)c2ccc(Cl)cc2)cc1)C(=O)O | 32
O=C(c1cccc2c1OCC2)N1CCc2onc(-c3ccccc3F)c2C1 | -16
CCc1ccccc1NC(=O)c1nnn(Cc2nc(-c3ccc(Cl)cc3)oc2C)c1C | -53
Cc1nc(N2CCCC2)nc2c1CCN(C(=O)c1ccc[nH]1)CC2 | -11
CCOCC1c2c(cnn2CC)CCN1Cc1ccc2c(c1)OCO2 (stereo not drawn) | 243
C[C@@H]1CCCCO[C@@H](CN(C)S(=O)(=O)c2cn(C)cn2)[C@@H](C)CN([C@H](C)CO)C(=O)c2cc(N(C)C)ccc2O1 | 46
CCc1ccccc1OCCCN(C)C(=O)c1cnc2cccc(C)n2c1=O | -3
Cc1ccc(-c2nc(CN3CCCCC3CCn3cccn3)c(C)o2)s1 (stereo not drawn) | 9
CC(=O)OC1CCC2C3CCc4cc(O)ccc4C3CCC12C (stereo not drawn) | -28
COc1ccc(CN2CCC3(CC2)CC(c2ccncc2)C(=O)N3)cc1 (stereo not drawn) | -2
Cc1cc(CN2CCOCC2)oc1C(=O)N1CCCCC1c1nc2ccccc2[nH]1 (stereo not drawn) | -1
CN1CCCC1CCNC(=O)C1(Oc2ccc3ncccc3c2)CCNCC1 (stereo not drawn) | 3
C[C@H](NC(=O)C[C@H]1C=C[C@@H](NC(=O)c2cccnc2)[C@@H](CO)O1)c1ccccc1 | 4
COc1cccc(NC(=O)Nc2ccc3c(c2)C(=O)N(C)C[C@@H](OC)[C@@H](C)CN(CC2CC2)[C@@H](C)CO3)c1 | -45
CC(=O)c1ccc(OCC(O)CN2CCN(C(c3ccccc3)c3ccccc3)CC2)cc1 (stereo not drawn) | -61
O=S(=O)(NCCSc1ccc(Cl)cc1)c1cccs1 | 10
CC(=O)Nc1ccc(CN2CCC(CO)(Cc3ccccc3C(F)(F)F)CC2)cc1 | -3
Cc1[nH][nH]c(=O)c1C(c1c(C)[nH][nH]c1=O)c1cn(Cc2ccccc2)c2ccccc12 | 1
OCCn1ccnc1-c1cccc(-c2ccco2)c1 | 6
CCc1ccc(CN2CCC(CNS(=O)(=O)C3CC3)C2)nc1 (stereo not drawn) | -1
c1ccc(Nc2nc(-c3ccccc3)c(-c3ccccc3)s2)cc1 | -105*
O=C1CCC(CCC(=O)N2CCC(C(O)c3cccnc3)CC2)(Cc2cccc3ccccc23)N1 (stereo not drawn) | 13
O=C(c1cccs1)N1CCN(S(=O)(=O)c2ccc3ccccc3c2)CC1 | -24
CCN1C(=O)CCc2cc(NC(=O)CCc3ccc(OC)cc3)ccc21 | 100
CCc1ccccc1NC(=O)C(=O)NCCc1sc(-c2cccc(F)c2)nc1C | -1
COc1ccc(Cl)cc1CN(C)C(=O)c1ccccc1C1CCNC1 (stereo not drawn) | -19
CN1CC(=O)N2CCN(C(=O)c3ccc(C#CC(C)(C)O)cc3)CC2C1=O (stereo not drawn) | -1
CC(c1ccon1)N(C)C(=O)c1scc2c1CCCC2 (stereo not drawn) | -24

Of the compounds above, these have a Cl atom.
SMILES | Tg IFNy HTS
Cc1cc(C)n(Cc2nc(-c3ccc(NC(=O)c4ccc(F)cc4Cl)cc3)oc2C)n1 | 66
O=C(Nc1cccc(Cl)c1)c1ccccn1 | 221
O=C(NCCc1csc(-c2ccccc2)n1)c1ccc(Cl)cc1 | 399
COC(=O)c1ccc(Cl)cc1NC(=O)c1c(-c2c(F)cccc2Cl)noc1C | -19
CCOC(=O)CSCC(=O)c1ccc(OCc2ccc(Cl)c(Cl)c2)cc1 | 88
CN1C(=O)C2(NCCc3c2[nH]c2ccc(Cl)cc32)c2cc(Br)ccc21 (stereo not drawn) | -9
Cc1nc(-c2ccc(F)cc2)sc1CCNC(=O)C(=O)Nc1ccccc1Cl | 7
Cc1ccc(S(=O)(=O)c2nc(/C=C3/N(C)c4ccccc4C3(C)C)sc2Cl)cc1 | 7
CCOc1ccccc1-c1noc(-c2c(O)c3cc(Cl)ccc3[nH]c2=O)n1 | 2
CC(C)(Oc1ccc(C(=O)c2ccc(Cl)cc2)cc1)C(=O)O | 32
CCc1ccccc1NC(=O)c1nnn(Cc2nc(-c3ccc(Cl)cc3)oc2C)c1C | -53
O=S(=O)(NCCSc1ccc(Cl)cc1)c1cccs1 | 10
COc1ccc(Cl)cc1CN(C)C(=O)c1ccccc1C1CCNC1 (stereo not drawn) | -19

Screening results from PubChem.

Some of the compounds tested. The share of hits here may be higher or lower than overall.
